Bioassay records: PubChem, Southern Research Institute
Mtb growth – Confirmatory growth inhibition assay against Mycobacterium tuberculosis H37Rv, potency (AID 1949); most inactive calls were filed without a number and no value below 0 was filed; inhibition, % at 10 µg/mL; hits with a dose series show IC50 in µg/mL; 100,000 compounds, 1.6% hits;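 active means confirmed in a dose series; inconclusive means about 50% or more but not retested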;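 further: bacteria grown 7 days with compound before Alamar blue readout; 0% = untreated bacteria and 100% = reference antibiotic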
* = called active by the depositor; i = inactive; ? = inconclusive. Only part of the results is shown; the hit share may differ from the screen's.

SMILES | Mtb growth
O=C(Nc1nccs1)C12CC3CC(CC(C3)C1)C2 | 1.4%
CSc1n[nH]c(NCc2cccs2)n1 | i
O=C1C2C3C=CC(C3)C2C(=O)N1c1ccccc1I (stereo not given) | 5.0%
CC(=O)c1ccc(N2CCN(C(=O)c3ccco3)CC2)c(F)c1 | i
C=CCn1c(SCC(=O)Nc2ccc(C(=O)OC)cc2)nc2sc3c(c2c1=O)CCC(C)C3 (stereo not given) | 0.8%
CCCCc1ccc(NC(=S)N2CCC(C(N)=O)(N3CCCCC3)CC2)cc1 | i
NC(=O)CCn1nc(-c2ccc(Cl)cc2)c2ccccc2c1=O | i
Cc1sc(NC(=S)Nc2ccccc2)c(C(N)=O)c1C | i
O=C(NC(Cc1ccccc1)C(=O)O)NC12CC3CC(CC(C3)C1)C2 (stereo not given) | i
O=c1oc2cc(OCc3cccc(F)c3)c(Cl)cc2c2c1CCCC2 | i
Cc1cccc(-c2nnc(SCC(=O)Nc3ccc([N+](=O)[O-])cc3C)n2C)c1 | i
Cc1nc(C)c(C(=O)C2=C(O)C(=O)N(CCCN3CCOCC3)C2c2cccnc2)s1 (stereo not given) | 4.3%
O=C(Nc1ccccc1O)c1ccc(C(=O)c2ccccc2)o1 | 4.1%
CC1=C(C(=O)OC(C)C)C(c2cc(C(C)(C)C)c(O)c(C(C)(C)C)c2)NC(=O)N1 (stereo not given) | 36.4%
O=c1c2ccccc2nc(Cc2ccccc2)n1Nc1ccccc1 | i

Individual results from the results shown.
Entry for Cc1nc(C)c(C(=O)C2=C(O)C(=O)N(CCCN3CCOCC3)C2c2cccnc2)s1 (stereo not given) in Mtb growth: 4.3%
Entry for O=C1C2C3C=CC(C3)C2C(=O)N1c1ccccc1I (stereo not given) in Mtb growth: 5.0%

More records.
SMILES | Mtb growth
CCOC(=O)c1sc(NC(=O)c2c(F)c(F)c(OC)c(F)c2F)c(C(=O)OCC)c1C | i
CC(Oc1cccc(Cl)c1)C(=O)Nc1ccc2c(c1)OCCO2 (stereo not given) | 9.9%
CCOC(=O)C1=C(C)N=c2s/c(=C\c3ccc(N(C)C)cc3)c(=O)n2C1c1ccc(C)cc1 (stereo not given) | i
O=C(c1ccccc1)N1N=C(C(F)(F)F)CC1(O)c1ccccc1 (stereo not given) | i
Cc1ccc(C)c(OCCCCSc2ncccn2)c1Cl | 2.8%
CCOc1ccc(C)cc1S(=O)(=O)n1nc(C)cc1C | 0.2%
O=C(NC1CCCCCC1)c1ccccc1-c1ccccc1 | ?
NC1=NC(=O)/C(=C/c2ccc(-c3cc(Cl)ccc3Cl)o2)S1 | i
Cc1cc(/C=C(/C#N)c2nc3ccccc3[nH]2)c(C)n1C | 2.8%
CN(c1ccccc1C(=O)Nc1cccc(Cl)c1Cl)S(=O)(=O)c1ccccc1 | 2.2%
CCOc1ccc(NC(=O)C2C3CCC4C(CCC32)C4(Cl)Cl)cc1 (stereo not given) | i
CCOC(=O)Cc1csc(NC(=O)CSc2nnc(CSc3nc(C)cc(C)n3)n2-c2ccccc2)n1 | 3.6%
COc1ccc2c(c1)c(=O)oc1c(CN3CCCC3)c(O)ccc12 | 3.4%
COc1ccc(OC)c(C2CC(c3ccc(OC)c(OC)c3)=NN2C(=O)CCC(=O)O)c1 (stereo not given) | i
O=C(c1ccc(Cl)s1)N1CCCC1 | i

Quoted at random: 2 compounds from above
SMILES | Mtb growth
NC1=NC(=O)/C(=C/c2ccc(-c3cc(Cl)ccc3Cl)o2)S1 | i
Cc1ccc(C)c(OCCCCSc2ncccn2)c1Cl | 2.8%

More structures
SMILES | Mtb growth
COc1ccc(-c2n[nH]c(C(F)(F)F)c2Oc2ccccc2C)c(O)c1C | i
O=C(NCCC1=CCCCC1)c1ccccc1C(=O)NCCC1=CCCCC1 | i
CN(C)c1ccc(C2C=C(c3ccc(Cl)cc3)Nc3ncnn32)cc1 (stereo not given) | 41.4%
O=S(=O)(Cc1ccccc1)Nc1ccccc1F | i
COc1ccc(Br)cc1C(=O)Nc1ccc2oc(-c3cccc(F)c3)nc2c1 | i
COC(=O)Cc1c(C)c2ccc(OCC(=O)c3ccc(-c4ccccc4)cc3)cc2oc1=O | i
COc1ccc(CC(=O)O/N=C(\N)c2ccc(Br)cc2)cc1OC | 1.8%
COCc1cc(C)nc2sc(C(=O)N3CCN(C)CC3)c(N)c12 | 2.0%
CCCN(CCC)S(=O)(=O)c1ccc(N)cc1 | i
Cc1onc(-c2ccccc2Cl)c1C(=O)Oc1ccc(C=O)cc1 | 6.0%
CC(C)(C)OC(=O)NNC(=S)NC1CCCCC1 | i
O=C(Cn1c2ccccc2n2nc(-c3ccco3)nc12)c1ccccc1 | 2.5%
COC(=O)c1ccc(C(=O)OC)c(NC(=O)c2ccc(N(Cc3ccccc3Cl)S(C)(=O)=O)cc2)c1 | i
CC(C)CNS(=O)(=O)c1ccc(CCC(=O)Nc2cccc(C(F)(F)F)c2)cc1 | i
CC1CCN(C(=S)c2ccc([N+](=O)[O-])cc2)CC1 | i
O=C(c1ccc(NC(=S)Nc2ccccc2C(F)(F)F)cc1)N1CCCC1 | i
Cc1coc(C)c1C(=O)CC1(O)C(=O)N(Cc2ccc(Cl)cc2)c2ccccc21 (stereo not given) | i
COC(=O)c1ccccc1NC(=O)c1ccc(I)o1 | i
Cc1cc(C)n(C(=O)c2cccc(S(=O)(=O)N3CCCC3)c2)n1 | i
O=C(CSc1nnnn1-c1ccccc1)Nc1ccc(S(=O)(=O)Nc2nccs2)cc1 | i
O=c1oc2ccccc2n1Cc1ccccc1Cl | i
COc1ccc(Cc2nc3ccccc3n2Cc2ccccc2F)cc1 | i
Cc1ccc(SCC(=O)Nc2ccccc2C(=O)N2CCN(c3ccccc3)CC2)cc1 | i
COc1ccc(N2C(=O)CC(Sc3nc4ccccc4c(=O)n3-c3ccccc3)C2=O)cc1 (stereo not given) | i
CCc1ccc(S(=O)(=O)Nc2nccs2)cc1 | i
CCOC(=O)c1sc(N2C(=O)c3oc4ccccc4c(=O)c3C2c2cccc(Cl)c2)nc1C (stereo not given) | i
Cc1ccc(S(=O)(=O)NCC(=O)N2CCN(c3ccccn3)CC2)cc1 | i
COc1ccc(C)cc1NC(=O)CSc1nnc(CSCc2ccccc2)n1C | i
O=c1[nH]nc(-c2ccc(N3CCCC3)c([N+](=O)[O-])c2)c2ccccc12 | i
CCN1CCN(C(=S)Nc2ccccc2F)CC1 | 2.7%
CCOC(=O)C(C#N)C(=O)c1ccc(NC(=O)c2ccccc2)cc1 (stereo not given) | 0.4%
COc1ccc(N2C(=O)CC(NCc3ccccc3Cl)C2=O)cc1 (stereo not given) | i
O=C(CC1C(=O)N(c2ccccc2)C(=O)N1Cc1ccco1)Nc1ccc(F)cc1 (stereo not given) | i
NC(=O)C1CCCN(c2nc(-c3ccc(F)cc3)cs2)C1 (stereo not given) | i
O=C(CSc1nnc(SCc2cccc3ccccc23)s1)Nc1ccc2cn[nH]c2c1 | i
c1ccc(Cn2c(Sc3nnnn3-c3ccccc3)nnc2-c2ccccc2)cc1 | i
O=C(O)c1ccc(Cl)c(NC(=S)NC(=O)c2ccc(Cl)cc2Cl)c1 | 4.9%
O=C(Nc1ccc(S(=O)(=O)N2CCc3ccccc32)cc1)c1ccc([N+](=O)[O-])cc1 | 0.2%
CC(=O)Nc1ccc(C(=O)N2CCc3ccccc3C2)cc1 | i
Cc1cccc(NS(=O)(=O)c2cccs2)c1C | i
COc1ccc(CC(=O)N2CC3(C)CC2CC(C)(C)C3)cc1OC (stereo not given) | i
Cc1cccc(NC(=O)COc2ccccc2C)n1 | i
Cc1cc(C)c(C#N)c(SCC(=O)Nc2nnc(-c3ccccc3)s2)n1 | i
Cc1cc(OCC(=O)NC2CCCCCC2)ccc1Br | 27.0%
COc1cccc(N(CC(=O)Nc2c(C)cc(C)cc2C)S(C)(=O)=O)c1 | i

Some of the entries above, set out differently:
mol	Mtb growth
O=C(CSc1nnc(SCc2cccc3ccccc23)s1)Nc1ccc2cn[nH]c2c1	i
Cc1cc(C)c(C#N)c(SCC(=O)Nc2nnc(-c3ccccc3)s2)n1	i

Gathered by group: those above with a cyano group.
SMILES | Mtb growth
Cc1cc(/C=C(/C#N)c2nc3ccccc3[nH]2)c(C)n1C | 2.8%
CCOC(=O)C(C#N)C(=O)c1ccc(NC(=O)c2ccccc2)cc1 (stereo not given) | 0.4%
Cc1cc(C)c(C#N)c(SCC(=O)Nc2nnc(-c3ccccc3)s2)n1 | i

(next part)
SMILES | Mtb growth
CCOc1ccc(C(=O)O/N=C(\N)c2ccc(Br)cc2)cc1OCC | 8.4%
CS(=O)(=O)N1N=C(c2ccco2)CC1c1ccc(Cl)cc1Cl (stereo not given) | i
O=C(CN1CCN(c2ccccc2F)CC1)Nc1cc(Cl)ccc1Cl | i
CCOc1ccc(N2C(=O)CC(Sc3ccccc3C(=O)O)C2=O)c([N+](=O)[O-])c1 (stereo not given) | i
CCC(=O)n1nc(-c2ccccc2)nc1N | 19.9%
CCc1nc2sc(C(=O)NCc3ccc(F)cc3)c(N)c2c(C(F)(F)F)c1C | 2.61µg/mL*
Cc1ccc(-c2nc3ccccc3s2)cc1NC(=S)NC(=O)c1cccc([N+](=O)[O-])c1C | i
O=C(Cc1ccccc1)N1CCN(CCCc2ccccc2)CC1 | i
CN1C(=O)c2ccc(C(=O)NCc3cccnc3)cc2C1=O | i
CCC(NC(=O)Cc1ccccc1)C(=O)O (stereo not given) | i
O=C(Nc1ccc(Cl)cc1)C1CCCC1 | i
O=S(=O)(c1ccc(-c2nc3ccccc3s2)cc1)N1CCCC1 | i
COC(=O)c1ccccc1NC(=O)Cn1nnc(-c2ccc(OC)cc2)n1 | i
COc1ccc(S(=O)(=O)Nc2ccc(S(=O)(=O)Nc3cc(Cl)ccc3C)cc2)cc1OC | 8.0%
NC1=NC(=Nc2ccc(Cl)cc2)c2ccccc21 | 2.1%
CC(=O)c1cccc(NC(=O)COc2ccc(Cl)cc2Br)c1 | i
O=C(O)C1C2C=CC(C2)C1C(=O)Nc1nc(-c2ccccc2)cs1 (stereo not given) | i
CC(C)CC(=O)Nc1ccc2c(c1)Cc1cc(NC(=O)CC(C)C)ccc1-2 | i
CCn1c2ccc(OC)cc2c2nc3ccccc3nc21 | i
Cc1c(NC(=O)c2ccccc2Sc2ccccc2C#N)c(=O)n(-c2ccccc2)n1C | i
O=C(COc1ccc(Br)cc1)Nc1ccc2c(c1)OCCO2 | i
Cc1cccc(-n2c(C)nnc2SCC(=O)Nc2ccc(Br)cc2F)c1 | i
CCOC(=O)c1cnc(SCc2ccccc2)nc1N | i
CCN1CCN(C(=S)NC2CCCCC2)CC1 | i
N/C(=N\OS(=O)(=O)c1ccc(Br)cc1)c1ccncc1 | i
CCOc1ccc(N(CC(=O)NCCCOC)S(=O)(=O)c2ccc(F)cc2)cc1 | i
O=C(NCC1CCCO1)c1cc2ccccc2oc1=O (stereo not given) | i
O=C(CCN1CCN(Cc2ccccc2)CC1)Nc1ccc(F)cc1 | i
c1ccc(CNCc2cn(-c3ccccc3)nc2-c2cccnc2)cc1 | i
C=CCn1c(Cc2ccc(OC)cc2)nnc1SCC(=O)c1ccccc1 | 1.3%
Cc1cc(C)n(-c2cc(C)c(C)cc2Br)n1 | 0.7%
CCCCSc1ccc(NC(=O)Nc2ccc(OC)c(OC)c2)cc1 | i
COc1ccccc1CC1CC(=O)N(c2ccccc2)C1=O (stereo not given) | i
CN1CCN(c2ccc(NC(=O)c3ccco3)cc2)CC1 | 0.1%
O=C(NC(=S)Nc1ccc2c(c1)Cc1ccccc1-2)c1ccc(Cl)cc1Cl | i
CCOc1ccccc1NC(=O)Cn1cnc2scc(-c3ccc(C)c(C)c3)c2c1=O | i
COC(=O)c1cc(OC)c(OC)cc1NC(=S)Nc1cccc(Cl)c1 | i
Cc1cc(OC(C)C(=O)c2ccccc2)c2c(C)c(C)c(=O)oc2c1 (stereo not given) | 0.7%
Cc1ccc(-c2nc3c4cnn(C)c4ncn3n2)cc1 | i
CC1CCN(C(=O)CCN2C(=O)c3cccc4cccc(c34)C2=O)CC1 | i
CCc1c(O)nc(SCC(=O)Nc2ccc(C(C)=O)cc2)[nH]c1=O | i
CCc1ccc(-n2c(SCC(=O)Nc3ccc(Br)cc3F)nnc2-c2ccncc2)cc1 | i
CCOC(=O)CC(=O)COc1nc2cc3c(nc2o1)CCCC3 | i
NC(=O)c1ccccc1NC(=S)NC(=O)c1ccccc1[N+](=O)[O-] | i
CC(=O)N(C)C(=S)N(C)C(=O)CC(c1cccc(Cl)c1)C1C(=O)N(C)C(=S)N(C)C1=O (stereo not given) | i
CCN(CC)C(=O)Nc1c(C)cc(C)cc1C | 0.6%
COc1cc(S(=O)(=O)N2CCN(Cc3ccccc3)CC2)c(OC)cc1Cl | i
CC(C)(C)Sc1ccc(C(=O)O)s1 | 1.5%
CCOc1ccc(NC(=O)c2cccc(OC(=S)N3CCOCC3)c2)cc1 | 1.1%
COc1ccc(C)cc1NC(=O)C1CCN(S(C)(=O)=O)CC1 | i
O=C1c2cccc3cccc(c23)C(=O)N1C1CC2CCC1C2 (stereo not given) | i
O=C(Cn1nc(C(F)F)cc1C1CC1)NCCC1=CCCCC1 | 3.8%
C=CCc1cccc(C)c1OCCCN1CCCC1 | i
CCOc1cc(C2C(C(=O)OC)=CNC=C2C(=O)OC)cc(Br)c1O | 1.5%
Clc1cccc(OCCN2CCNCC2)c1 | i
CCOc1ccc(S(=O)(=O)NCc2cccs2)c2ccccc12 | 6.0%
COc1ccc(C)cc1N(CC(=O)N1CCCCCC1)S(C)(=O)=O | i
COc1cc(CO)ccc1OCc1ccccc1C#N | i
